Source: PubChem
TSHR agonist: TSH receptor (human) agonism; P16473; HEK293-CNG-TSHR cells (CNG channel as cAMP sensor), membrane potential dye, cAMP; Potency, µM (doses to about 57.1 µM), without a hit: at the top dose activation, usual class: activators; 0.48% of 73,000 active; AID 926; active = well fitted activation curve of enough size with the parental cells flat; inconclusive = any curve in the parental cells; inactive = parental cells flat and receptor cells flat or falling; further: potency means the concentration at half of the fitted maximal effect; % of control where 0% means no effect; weak receptor curves with flat parental cells got no call and are not listed
Target sequence (P16473 whole entry, looked up): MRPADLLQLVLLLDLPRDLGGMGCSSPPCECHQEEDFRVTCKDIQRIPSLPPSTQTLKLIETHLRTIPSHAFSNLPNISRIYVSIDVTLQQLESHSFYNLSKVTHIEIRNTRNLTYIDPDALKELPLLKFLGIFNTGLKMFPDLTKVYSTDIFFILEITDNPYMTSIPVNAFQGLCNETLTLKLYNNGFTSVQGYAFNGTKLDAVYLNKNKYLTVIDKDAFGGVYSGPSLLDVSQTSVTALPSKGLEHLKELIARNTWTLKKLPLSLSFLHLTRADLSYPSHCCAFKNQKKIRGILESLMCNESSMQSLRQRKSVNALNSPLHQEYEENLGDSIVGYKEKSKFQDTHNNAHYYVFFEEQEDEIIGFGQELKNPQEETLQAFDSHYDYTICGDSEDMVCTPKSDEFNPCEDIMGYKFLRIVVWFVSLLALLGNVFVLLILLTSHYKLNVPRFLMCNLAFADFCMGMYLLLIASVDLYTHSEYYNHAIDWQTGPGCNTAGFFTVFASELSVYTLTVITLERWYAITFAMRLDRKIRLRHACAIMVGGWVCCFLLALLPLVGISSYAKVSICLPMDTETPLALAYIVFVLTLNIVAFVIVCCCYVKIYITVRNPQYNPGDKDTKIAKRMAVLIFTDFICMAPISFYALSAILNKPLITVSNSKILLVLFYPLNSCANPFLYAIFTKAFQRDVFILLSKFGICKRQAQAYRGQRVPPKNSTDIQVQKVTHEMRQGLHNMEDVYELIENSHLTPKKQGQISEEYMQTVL
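cAMP rise detected as CNG-channel membrane depolarization by fluorescent dye (emission 590 nm), 30 min after compound, following 60 min dye loading containing 100 uM RO 20-1724 at room temperature. Cells: TSHR/CNG HEK 293, with parental CNG HEK 293 as control.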
A647 autofl: compound fluoresces in the A647 spectral region; Compound fluorescence, A647 channel (570/671 nm), Tris buffer; max dye-equivalent concentration, M; 59,000 tested, under 10 active; AID 592; active means above 1 µM dye equivalent; inconclusive means 0.1 to 1 µM; inactive means 0.1 µM or less;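 further: values scaled relative to a standard on each plate; highest value over a series up to 38 µM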
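Compound fluorescence was measured in 100 mM Tris buffer, pH 8.0, after 15 min at room temperature, using 570 nm excitation and 671 nm emission filters. Signal was normalized to a per-plate Alexa 647 standard curve and expressed as dye-equivalent concentration at each compound concentration.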
AID923: qHTS Assay for Allosteric/Competitive Inhibitors of Caspase-1: Spectroscopic Profiling in AFC Spectral Region. AID 923, 2007. Potency, µM (top dose mostly 57.5 µM), inactives show at the highest dose fluorescence increase, most hits filed as activators. compound fluorescence, AFC spectral region (405/520 nm); almost no hit is shown here. 1.1% of 75,000 active; active means well fitted activation curve with a large enough effect; inconclusive means small, poorly fitted or top-dose-only effect;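 further: potency means the concentration at half of the fitted maximal effect; 0% is about no effect; scaled to a free AFC standard on each plate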
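Compound autofluorescence profiled at 405 nm ex/520 nm em during kinetic caspase 1 run (50 nM enzyme, 5 uM Ac-WEHD-AFC, HEPES pH 7.5, 10 mM DTT). Titration up to 57 uM; baseline from regression intercept, normalized to AFC standard curve.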
A488 fluor: compound autofluorescence in A488 spectral region; compound autofluorescence, A488 spectral region, dye equivalency; active compounds read high; max dye equivalency, M; 0.1% of 59,000 active; AID 591; active = above 10 nM dye equivalent; inconclusive = 1 to 10 nM; inactive = 1 nM or less; about half of its hits are not listed in these tables;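 further: highest value over a series up to 38 µM; compound alone in buffer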
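Compounds pin-transferred into 100 mM Tris buffer, pH 8.0, incubated 15 min at room temperature, then imaged with 480 nm excitation/540 nm emission filters. Fluorescence converted to Alexa 488 dye-equivalent concentration via an on-plate six-point A488 standard curve.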
Resorufin autofl: compounds fluorescent in resorufin spectral region | Compound fluorescence, resorufin region 547/598 nm, buffer; active compounds read high | max dye-equivalent concentration, M | 0.04% of 59,000 active; active = above 10 nM dye equivalent; inconclusive = 1 to 10 nM; inactive = 1 nM or less; a few of its hits are not listed in these tables; further: highest value over a series up to 38 µM
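Compounds in 100 mM Tris buffer, pH 8.0, incubated 15 min at room temperature, then read with 547 nm excitation and 598 nm emission filters. Fluorescence was converted to dye-equivalent concentration using an on-plate six-point resorufin standard curve.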
* marks the source's active call; other numbers are inactive results; i = inactive; ? = inconclusive; / = not tested or not shown; [ ] = another dose, or the depositor's remark. Only part of the results is shown; the hit share may differ from the screen's.

Values in the order – A647 autofl	Resorufin autofl	TSHR agonist	AID923	A488 fluor
> CN(CC(=O)N1CCN(C2CCCCC2)CC1)S(=O)(=O)c1cccc2nsnc12
  3.23e-08	i	-4.6%[11.4 µM]	2.5%	i
> CC(C)c1ccc(OC(=O)NCCO)cc1
  /	/	3.2%	-1.6%	/
> CCN1CCN(CCCNC(=O)Cn2cc3c(n2)CCCC3)CC1
  /	/	?	2.9%	/
> O=C(Nc1nc2c(s1)C(=O)CCC2)c1ccccc1
  /	/	7.4%	0.8%	/
> O=C(c1ccco1)N1CCN(C(=O)c2oc(=O)c3ccccc3c2-c2ccccc2)CC1
  /	/	18.8%	1.6%	/
> CC1=C(C)SC(=C(C#N)c2nnc(N3CCOCC3)n2-c2ccccc2)S1
  2.03e-08	i	-2.4%	-0.1%	i
> COc1ccc(/C=N/n2cnnc2SCc2ccc(OC)cc2)cc1
  /	/	?	-0.6%	/
> CCOc1cccc(C(=O)Nc2cccnc2)c1
  /	/	-0.4%	0.4%	/
> COCCOC(=O)C1=C(C)NC2=C(C(=O)CCC2)C1c1ccc2c(c1)OCO2 (stereo not drawn)
  /	/	0.0%[11.4 µM]	3.9%	/
> CCN1CCN(C(c2cccs2)C(C)NS(=O)(=O)c2ccc(Br)cc2)CC1 (stereo not drawn)
  1e-09	i	15.0%	-0.4%	i
> O=CNC1CCCc2c1[nH]c1ccc(Cl)cc21 (stereo not drawn)
  /	/	-27.0%	-0.3%	/
> CCCCn1c(CN2CCN(C(=O)OCC)CC2)nc2c1c(=O)n(C)c(=O)n2C
  3.78e-08	i	-2.2%	1.9%	i
> CCOc1ccc(Br)cc1/C=N/O
  /	/	?	-0.6%	/
> Cc1cnc(C(=O)OCC(=O)NC(=O)NC(C)C)cn1
  1.49e-08	i	0.2%	3.0%	i
> COc1cccc(C2NC(CCSC)(C(=O)O)C3C(=O)N(C(C)C)C(=O)C23)c1O (stereo not drawn)
  /	/	8.3%	-0.6%	/
> O=c1c2c(-c3ccccc3)csc2nc2n1CCC2
  2.6e-09	i	-0.4%	0.4%	i
> O=C(c1cccc(F)c1)N1CCN(C(=O)C2CC2)CC1
  1e-09	i	12.1%	0.0%	i
> COc1ccc(Cl)cc1-c1nc(-c2ccc(Br)o2)no1
  /	/	?	-2.0%	/
> CC(C)NC(=O)[C@H]1C[C@@H]1[C@H](NC(=O)OCc1ccccc1)c1ccccc1
  /	/	?	1.2%	/
> Cc1nc(C)c(C(=O)C2=C(O)C(=O)N(CCCn3ccnc3)C2c2ccc(Cl)cc2)s1 (stereo not drawn)
  1.86e-08	i	?	4.7%	i
> CN(C)Cc1ccccc1-c1nc(NC2CCNCC2)c2ccccc2n1
  1e-09	i	2.9%	2.5%	i
> CCCc1cc(=O)[nH]c(SCC(=O)N(CC)Cc2ccccc2)n1
  1e-09	i	6.1%	0.5%	i
> CCOc1ccccc1Nc1nnc(SCC(=O)N2CCCC2)s1
  5.53e-08	i	?	-0.5%	i
> CCOCc1nnc(NC(=O)CCc2ccccc2)s1
  5.3e-09	i	0.9%	0.2%	i
> CC(C)(N=NC(C)(C)C(=N)N)C(=N)N
  4.81e-08	i	1.7%[11.4 µM]	-1.5%[11.5 µM]	i
> COc1ncc2nc(CCc3ccccc3)c(=O)n(C)c2n1
  1e-09	i	?	2.9%	i
> CCC(=O)N1CCN(c2ccccc2NC(=O)COc2cccc(C)c2)CC1
  3.38e-08	i	?	-0.9%	i
> CC1CN(C(=O)CN2C(=O)NC(C)(c3ccccc3)C2=O)CC(C)O1 (stereo not drawn)
  2.54e-08	i	1.5%	0.3%	i
> CC(C)(C)NC(=O)COC(=O)c1ccc(O)cc1
  1e-09	i	?	1.0%	i
> O=C(c1ccc(Cl)s1)N1CCOCC1
  1.99e-08	i	28.0%	-0.8%	i
> CCOC(=O)c1ccc(NC(=O)C(CC)(CC)C(=O)OCC)cc1
  1.19e-08	i	/	-0.2%	i
> COC(=O)c1cn(C(=O)c2ccc(Br)o2)c2ccccc12
  /	/	-3.5%	-0.1%	/
> Cc1nc(N2CCCC2)c2nnn(Cc3ccccc3Cl)c2n1
  9.8e-09	i	29.7%	1.7%	i
> CCOc1cc(C(=O)NCCOC)cc(OCC)c1OCC
  /	/	-2.1%	2.0%	/
> Cc1csc(SCCn2c(N3CCN(c4ccccc4)CC3)nc3c2c(=O)[nH]c(=O)n3C)n1
  2.06e-08	i	1.5%	-1.7%	i
> c1ccc(N2CCN(c3ncnc4sc5c(c34)CCC5)CC2)cc1
  1.9e-08	i	?	1.2%	i
> Cc1cc(C)n(CC(O)COCc2ccccc2)n1 (stereo not drawn)
  1e-09	i	0.0%	-1.6%	i
> COc1ccc(O)c(C(=O)CC(=O)c2ccc(F)cc2)c1
  /	/	22.3%	1.2%	/
> CN(C)C1NC(=O)c2cc(-c3ccccc3)sc2N1 (stereo not drawn)
  6.8e-09	i	3.9%	-1.2%	i
> CC(=O)Nc1cc(OC(C)=O)c2nonc2c1OC(C)=O
  1e-09	i	-20.6%	1.5%	i
> CC1CCCN(C(=O)CN2CCN(C(=O)c3ccco3)CC2)C1 (stereo not drawn)
  1e-09	i	7.1%	1.4%	i
> CCOC(=O)c1ccc(NC(=O)CC2SC(=NC)N(C)C2=O)cc1 (stereo not drawn)
  1.49e-08	i	4.3%	-0.2%	i
> CCOC(=O)C1CCN(c2c(NCc3ccc(C(=O)NCCOC)cc3)c(=O)c2=O)CC1
  4.5e-09	i	0.9%	-1.3%	i
> CCC(=O)N1c2ccccc2NC2=C(C(=O)CC(c3ccco3)C2)C1c1ccco1 (stereo not drawn)
  /	/	12.3%	2.7%	/
> O=S(=O)(NCC(c1cccnc1)N1CCN(c2ccccc2)CC1)c1cc(F)ccc1F (stereo not drawn)
  7.8e-09	i	-1.4%	-1.2%	i
> CCOC(=O)C1=C(C)Nc2ncnn2C1/C=C/c1ccccc1 (stereo not drawn)
  3.63e-08	i	/	-3.2%	i
> CC(C)=CCC/C(C)=C/CO/N=C1/C[C@@H](O)[C@@H](O)[C@@H]2[C@@H]3C(=O)N([C@@H](C)c4ccccc4)C(=O)[C@H]3CC[C@@H]12
  /	/	-6.1%[11.4 µM]	-2.4%[11.5 µM]	/
> C[C@@H]1C=C[C@](Cc2ccccc2)(C(=O)NCC2CC2)N1C(=O)c1ccccc1
  /	/	?	0.4%	/
> CCC(C)(C)n1nnnc1C(c1cc2cc(C)cc(C)c2[nH]c1=O)N1CCCC1 (stereo not drawn)
  2.95e-08	i	-1.8%	11.6%	i
> Cc1ccc(S(=O)(=O)Cc2cn3cccnc3n2)cc1
  2.7e-09	i	-2.0%[11.4 µM]	-0.5%	i
> O=C(Nc1ccc2oc(-c3cccnc3)nc2c1)c1cc2ccccc2o1
  /	/	7.6%	1.2%	/
> COC(=O)C1=C(C)N(c2cc(Cl)cc(Cl)c2)C(=O)C1
  /	/	11.8%	-0.8%	/
> O=C(NCCCn1ccnc1)c1csc2ccccc12
  1.01e-08	i	16.8%	1.3%	i
> O=C1NC(c2ccc3c(c2)OCO3)Oc2ccccc21 (stereo not drawn)
  2.18e-08	i	12.4%	0.2%	i
> c1ccc(-c2ccc(-n3ccnc3)cc2)cc1
  2.7e-09	i	?	-0.1%	i
> COC(=O)c1c(N)c(C#N)c(C)n1-c1ccccc1
  /	/	0.5%	3.5%	/
> CC1CCN(CCC(=O)N2CCCc3c2c(=O)oc2ccc(O)cc32)CC1
  1e-09	i	-0.4%	-4.1%	i
> COc1ccc(-n2nc(C(=O)NCC(=O)N3CCN(c4ccccn4)CC3)c3ccccc3c2=O)cc1
  1.85e-08	i	5.1%	2.1%	i
> Cc1cc(C(=O)CSc2nnc(-c3ccccc3)n2Cc2ccc3c(c2)OCO3)c(C)n1C
  5.4e-09	i	?	-2.1%	i
> N#CC1=C(N)N(c2ccccc2Sc2ccccc2)C(=O)C1
  1e-09	i	-2.0%	0.6%	i

Complete entries as entered above. Order of values: A647 autofl, Resorufin autofl, TSHR agonist, AID923, A488 fluor
CCC(=O)N1CCN(c2ccccc2NC(=O)COc2cccc(C)c2)CC1 in the list: 3.38e-08, i, ?, -0.9%, i
CCOCc1nnc(NC(=O)CCc2ccccc2)s1 in the list: 5.3e-09, i, 0.9%, 0.2%, i
CC(=O)Nc1cc(OC(C)=O)c2nonc2c1OC(C)=O in the list: 1e-09, i, -20.6%, 1.5%, i

Following part:
Values in the order – A647 autofl	Resorufin autofl	TSHR agonist	AID923	A488 fluor
> CCOc1nc(-c2ccc(C)cc2)ccc1-c1noc(-c2cccnc2)n1
  1.38e-08	i	-2.9%	-2.3%	i
> CC(=O)Nc1cccc(NC(=O)c2sc3ncn(CC(=O)N4CCCCC4)c(=O)c3c2C)c1
  4.2e-09	i	-1.1%[11.4 µM]	0.2%	i
> Cc1nc(SCC(N)=O)[nH]c(=O)c1Cc1ccc(OC(C)C)cc1
  1.3e-09	i	/	/	i
> CCOC(=O)c1cc2sc(C)cc2n1CC(=O)N1CCc2ccccc21
  1e-09	i	?	2.0%	i
> Cc1cc(C(=O)N2CCN(C(=O)C3CCCO3)CC2)no1 (stereo not drawn)
  1.75e-08	i	0.7%	-1.8%	i
> COc1ccc2c(c1)CC(C1(O)C(=O)Nc3ccccc31)C2=O (stereo not drawn)
  1e-09	i	-10.2%	-1.4%	i
> COc1ccc(Cl)c(Cn2c(NCc3ccco3)nc3c2c(=O)n(C)c(=O)n3C)c1
  1.2e-09	i	23.5%	1.4%	i
> COc1ccc(-c2ncncc2-c2csc(C)n2)c(O)c1
  2.9e-08	i	/	/	i
> CCOC(=O)c1[nH]c(C)c(CN(CCc2ccccc2)S(C)(=O)=O)c1C
  /	/	31.6µM*	-3.5%	/
> COc1ccc(NC(=O)N2CC3(CCN(C(=O)c4cccn4C)CC3)C2)cc1
  1.45e-08	i	-1.1%	-2.0%	i
> CC(=O)CCc1ccc(OC(=O)c2cccnc2)cc1
  /	/	2.0%	0.2%	/
> c1ccc(-c2cnnc(N3CCCCC3)n2)cc1
  1e-09	i	21.8%	-0.3%	i
> CC(=O)OC(C(=O)n1nc(C)cc1C)c1ccccc1 (stereo not drawn)
  3.6e-09	i	23.0%	-1.6%	i
> Cc1c(C(=O)OC2CCCCC2)[nH]c2c1C(=O)CC(C)(C)C2
  5.38e-08	i	?	-3.2%	i
> CC1(C)Cc2c(c(N3CCOCC3)nc3sc(C(=O)N4CCCCC4)c(N)c23)CO1
  /	/	-10.3%	0.7%	/
> CNc1nc(-c2ccc(Cl)cc2)cs1
  8.7e-09	i	-18.0%	-0.9%	i
> C=CCSc1nsc(N)n1
  2.62e-08	i	-1.3%	0.9%	i
> Clc1ccc(OCCCc2nc(-c3cccnc3)no2)c(Cl)c1
  1e-09	i	?	1.1%	i
> COC(=O)c1[nH]c2c(c1C)C(=O)CC(c1cc(OC)ccc1OC)C2 (stereo not drawn)
  /	/	?	-2.5%	/
> Cc1ccccc1CS(=O)(=O)Cc1ccc(C(=O)NCc2cccnc2)o1
  4.44e-08	i	3.0%	-0.5%	i
> COc1ccc(-c2cc(C(F)(F)F)nc(SCC(=O)NCc3ccco3)n2)cc1OC
  5.3e-08	i	67.4%	-1.2%	i
> Cc1ccc(C(=O)NCc2ccc3c(c2)OCO3)cc1S(=O)(=O)N1CCOCC1
  2.54e-08	i	5.1%	0.6%	i
> CC(CCc1ccccc1)NC(=O)c1nnc(Cc2ccc(F)cc2)o1 (stereo not drawn)
  /	/	8.0%	0.9%	/
> CC(C)(C)NC(=O)CSc1nsc(SCC(=O)NC(C)(C)C)c1C#N
  8.5e-08	i	/	/	i
